Screening results (PubChem BioAssay)
Mtb H37Rv = Mycobacterium tuberculosis H37Rv growth inhibition, cell based, confirmatory dose response (AID 1949); most inactive calls were filed without a number and no value below 0 was filed; inhibition, % at 10 µg/mL; hits with a dose series show IC50 in µg/mL; hit rate 1.6% among 100,000;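 active = confirmed in a dose series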;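 also: bacteria grown 7 days with compound before Alamar blue readout; 0% = untreated bacteria and 100% = reference antibiotic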
Numbers without * were called inactive; i = inactive.

SMILES | Mtb H37Rv
COC(=O)Cc1ccc(NC(=S)NC2CCCCC2)cc1 | i
CCc1ccc(OCc2nnc(SCC(=O)Nc3cccc(C(F)(F)F)c3)n2C)cc1 | 1%
Cc1cc(C)cc(C(=O)NCCCN2CCOCC2)c1 | i
COc1ccc(-c2noc(Cc3ccccc3OC)n2)cc1 | 14%
O=C(C1CCCO1)N1CCN(C(=S)NC2CC2)CC1 (stereo unspecified) | i
COC(=O)c1cccc(NC(=O)Cc2ccc(Cl)cc2)c1 | i
CCOc1ccc(N(CC(=O)Nc2cccc(Cl)c2C)S(=O)(=O)c2ccccc2)cc1 | 3%
CCC(Oc1ccccc1)C(=O)Nc1cc(OC)ccc1OC (stereo unspecified) | 2%
Cc1cc(C(=O)CSc2nnc3ccccn23)c(C)n1Cc1ccccc1 | i
C#CCn1c(C(C)Oc2ccccc2)nc2ccccc21 (stereo unspecified) | 4%
CCn1ccc(CNC(=S)NCCOC)n1 | i
CCOC(=O)Nc1cc(C)c(Cl)cc1OC | i

A different layout for four compounds above.
SMILES	Mtb H37Rv
COc1ccc(-c2noc(Cc3ccccc3OC)n2)cc1	14%
CCC(Oc1ccccc1)C(=O)Nc1cc(OC)ccc1OC (stereo unspecified)	2%
O=C(C1CCCO1)N1CCN(C(=S)NC2CC2)CC1 (stereo unspecified)	i
COC(=O)c1cccc(NC(=O)Cc2ccc(Cl)cc2)c1	i

A second format for part of the listing above:
Cc1cc(C)cc(C(=O)NCCCN2CCOCC2)c1
- Mtb H37Rv: i

CCn1ccc(CNC(=S)NCCOC)n1
- Mtb H37Rv: i

CCOc1ccc(N(CC(=O)Nc2cccc(Cl)c2C)S(=O)(=O)c2ccccc2)cc1
- Mtb H37Rv: 3%

Next part.
SMILES | Mtb H37Rv
Cc1cc(C)c(S(=O)(=O)N2CCN(Cc3ccccc3)CC2)cc1C | 8%
O=C(CN1CCCC1)Nc1ccccc1Cl | i
Cc1cc(C)nc(SCC(=O)NC(C)c2ccccc2)n1 (stereo unspecified) | i
O=C(NCc1ccccc1)c1cc2ncc(Br)cn2n1 | 1%
CC(C)(C)c1cc(Br)ccc1OCC(=O)Nc1ccccc1 | i
Cc1ccccc1NS(=O)(=O)c1ccc(-c2ccccc2)cc1 | 4%
COc1cc(OC)cc(C(=O)NCc2ccco2)c1 | i
CCOc1ccccc1C(=O)N1CCN(c2ccc(Cl)cc2)CC1 | i
CCOc1ccccc1NC(=O)C(C)Oc1cccc(Cl)c1 (stereo unspecified) | 32%
CCC(=O)Nc1cccc(-c2nc3cc(C)ccc3o2)c1 | 35%
CCCc1nc2scc(-c3ccc(C)cc3)c2c(=O)n1N | i
O=Cc1cc2c(cc1Br)OCO2 | i
CC(=O)NC(=S)Nc1cccc(C)c1 | i
Cc1ccc(S(=O)(=O)N(CC(=O)N2CCOCC2)c2cc(Cl)cc(Cl)c2)cc1 | i
CC(C)c1nnc(NC(=O)CC(c2ccccc2)c2ccccc2)s1 | i
CCN(CC)C(=O)C1CCN(S(=O)(=O)c2cc(Cl)ccc2Cl)CC1 | i
CCNc1nc(=S)nc(NCc2ccccc2)[nH]1 | 22%
Cc1cc(C)nc(NC(=O)c2c(-c3ccccc3Cl)noc2C)n1 | 0%
CCOC(=O)c1c(NC(=O)C2CC(=O)N(c3ccc(OC)cc3)C2)sc(C)c1C (stereo unspecified) | 33%
Cc1cc(C)c(S(=O)(=O)NCC(=O)NCc2ccccn2)c(C)c1 | 4%
Nc1cc(=O)[nH]c(SCC(=O)Nc2ccc(Br)cn2)n1 | i
COc1cc(OC)cc(C(=O)NNC(=S)NC2CC2)c1 | i
COc1ccccc1NC(=O)c1sc2ncn(CC(=O)N3CCCc4ccccc43)c(=O)c2c1C | i
O=C(NCCCN1CCN(CCCNC(=O)c2cccc(Cl)c2)CC1)c1cccc(Cl)c1 | i
Cc1cc(C)nc(SCC(=O)c2ccc3c(c2)OCCO3)n1 | i
CCn1c(CNC(=O)c2cccc(C)c2)nnc1SCC(=O)Nc1cc(F)ccc1C | 3%
O=C(O)c1cccc2c1NC(c1ccc([N+](=O)[O-])cc1)C1Cc3ccccc3C21 (stereo unspecified) | i
O=C1Cc2ccc(C(F)(F)F)cc2N1 | i
CCOC(=O)c1c(NC(=S)N2CCC3(CC2)OCCO3)sc(C)c1-c1ccccc1 | i
COc1cccc(NC(=O)Cn2c(=O)oc3ccccc32)c1 | i
CCN(CC)CC#CC1(O)c2ccccc2-c2ccccc21 | 13%
O=C(NC(c1ccccc1)c1ccccc1)c1ccccc1C(=O)NC(c1ccccc1)c1ccccc1 | i
Cc1ccc(CC(=O)Nc2cccnc2)cc1 | i
CCc1cccc(CC)c1NC(=O)CCc1ccc(S(=O)(=O)NC2CCCCC2)cc1 | i
O=C(Cc1ccccc1)Nc1ccc(O)cc1C(=O)O | i
Cc1cc(OCC(=O)Nc2ccc(N(C)C)cc2)cc(C)c1Br | i
C=C(C)Cn1c(CCNC(=O)C(C)C)nc2ccccc21 | 3%
CCOC(=O)c1ccc(NS(=O)(=O)c2cc(CC)ccc2CC)cc1 | i
CCCn1nnc(NC(=O)Cc2ccccc2)n1 | i
O=C(Nc1ccc(Cl)cc1)Nc1ccccc1Br | 0%
CCOC(=O)C(C(=O)Nc1nccs1)C1CCCCC1 (stereo unspecified) | i
CCn1c(COc2ccc(C)cc2)nnc1SCC(=O)N1c2ccccc2Sc2ccccc21 | i
CCOC(=O)c1ccc(NS(=O)(=O)c2ccc3[nH]c(=O)[nH]c3c2)cc1 | i
Cc1ccc(NC(=O)C2=C(c3ccccc3)NC(=S)NC2c2ccccc2OC(C)C)cc1 (stereo unspecified) | 1%
COc1ccc(CCNc2ccncn2)cc1OC | i
COc1ccc(NC(=O)CN2CCN(c3ccc(Cl)cc3)CC2)cc1 | i
O=C(COc1ccc(Cl)cc1Cl)Nc1nc2ccc(Br)cc2s1 | i
COc1ccc(OCC(=O)NNC(=S)NC(=O)C(C)(C)C)cc1 | 0.13µg/mL*

The last 6 compounds of the section above come first, to join the parts:
SMILES | Mtb H37Rv
CCOC(=O)c1ccc(NS(=O)(=O)c2ccc3[nH]c(=O)[nH]c3c2)cc1 | i
Cc1ccc(NC(=O)C2=C(c3ccccc3)NC(=S)NC2c2ccccc2OC(C)C)cc1 (stereo unspecified) | 1%
COc1ccc(CCNc2ccncn2)cc1OC | i
COc1ccc(NC(=O)CN2CCN(c3ccc(Cl)cc3)CC2)cc1 | i
O=C(COc1ccc(Cl)cc1Cl)Nc1nc2ccc(Br)cc2s1 | i
COc1ccc(OCC(=O)NNC(=S)NC(=O)C(C)(C)C)cc1 | 0.13µg/mL*
COc1ccc(N2C(=O)CC(NCCNc3ccc([N+](=O)[O-])cn3)C2=O)cc1 (stereo unspecified) | 1%
Cc1cc(C(F)(F)F)nc(SCC(=O)c2ccccc2)n1 | i
COc1ccc(OC)c(NC(=S)NC(=O)c2ccc(C)c(Br)c2)c1 | i
Cc1ccc(S(=O)(=O)N2CCCC2C(=O)N2CCCCC2)cc1 (stereo unspecified) | i
COc1cc(OC)c(C(=O)Nc2cccc(C#N)c2)cc1OC | i
Cc1ccc(OCC(O)CN2CCN(c3ccccn3)CC2)cc1C (stereo unspecified) | i
CN(c1ccccc1C(=O)Nc1ccccc1Sc1ccccc1)S(C)(=O)=O | i
COCCN1C=C(C(=O)OC)C(c2ccccc2Br)C(C(=O)OC)=C1 | i
COC(=O)c1cc(OC)c(OC)cc1NC(=O)c1cc(C)ccc1C | 3%
O=C(CSc1nnc(-c2ccco2)o1)c1cc2ccccc2oc1=O | i
COC(=O)c1cc(-c2ccc(Cl)c(Cl)c2)nc2ccccc12 | i
Cc1ccc(S(=O)(=O)CCC(=O)OCC(=O)c2ccccc2)cc1C | i
O=C1c2cccc3cccc(c23)C(=O)N1CCNc1cccc2ccccc12 | 5%
Cc1cc(C)cc(OC(C)C(=O)Nc2ccc(S(=O)(=O)Nc3ncccn3)cc2)c1 (stereo unspecified) | i
CC(=O)Nc1sc(-c2ccc(Cl)cc2)nc1-c1ccccc1 | i
CCc1ccc(-c2nc(C)c(C(C)=O)n2O)cc1 | i
Cc1cccc(C(=O)Nc2sc3c(c2C(=O)N2CCCC2)CCC3)c1 | 36%
CCOc1ccc(C2Nc3ccccc3NC3=C2C(=O)CCC3)cc1 (stereo unspecified) | i
Cc1ccc(S(=O)(=O)N2CCCC2)cc1-c1nnc2c3ccccc3c(C)nn12 | i
CCc1ccc(NC(=O)C2CCN(C(=O)c3ccc(F)cc3)CC2)cc1 | i
COc1ccc(-c2nnc(SCC(=O)NCCc3ccccc3)o2)cc1 | <0.1µg/mL*
COc1ccc(NC(=O)C2CC(=O)NC3=C2C(=O)CC(c2ccc(OC)cc2)C3)cc1 (stereo unspecified) | i
Cc1nc2sc3c(c2c2n[nH]c(=S)n12)CCCC3 | i
Cc1cccc(OCc2nnc(SCC(=O)Nc3c(F)cc(F)cc3Br)n2C)c1C | 3%
Cc1ccc(SC2CC(=O)N(c3ccc(-c4nc5ccccc5o4)cc3)C2=O)cc1 (stereo unspecified) | i
O=C(CCN1CCN(c2ccccc2F)CC1)Nc1ccc(Br)cc1 | i
COc1ccc(Cl)cc1N(CC(=O)Nc1cccc(C(C)=O)c1)S(=O)(=O)c1ccccc1 | i
CCc1nnc2sc(-c3ccc(NC(=O)c4ccc(Br)o4)cc3)nn12 | 0%
O=C(O)c1ccc(COc2ccc(F)cc2)o1 | i
CCCCOc1ccccc1NC(=O)c1ccc(=O)[nH]c1 | i
COc1ccc(CC2S/C(=N\N=C(/C)c3ccc(Cl)cc3)NC2=O)cc1 (stereo unspecified) | i
COC(=O)c1cc(-c2ccccc2)sc1NC(=O)c1ccncc1 | i
O=C(C1CCN(S(=O)(=O)c2ccc(F)cc2)CC1)N1CCN(c2cccc(Cl)c2)CC1 | 8%
COc1ccc(OC)c(N(CC(=O)Nc2ccc(-c3nc4ccc(C)cc4s3)cc2)S(C)(=O)=O)c1 | i
O=C(NC12CC3CC(CC(C3)C1)C2)c1ccc(Br)o1 | i
CC(=O)CSc1nc(-c2ccccc2)cc(C(F)(F)F)c1C#N | i
COc1cc(OC)cc(C(=O)Nc2ccccc2C(C)C)c1 | i
CCOc1ccc(CN2CCN(C(=O)c3cccc4ccccc34)CC2)cc1 | i
CCn1cc(Br)c(C(=O)Nc2ccc(Cl)cc2Cl)n1 | i
O=C(Oc1cc2ccccc2cc1OC(=O)N1CCCCC1)N1CCCCC1 | i
CC(=O)NCCOc1ccc(C2CCCCC2)cc1 | i
COc1ccccc1CC(=O)Nc1ccc2c(c1)C(=O)NC2=O | i
COc1ccc(C(C)(C)C)cc1S(=O)(=O)Nc1ccc(F)cc1 | 2%
CN(C)C(=O)c1cc(I)ccc1NC(=O)c1ccc(Cl)cc1Cl | i
COc1ccc(NC(=O)Nc2ccc(Cl)cc2C(F)(F)F)cc1OC | i
CCC(C)C(=O)Nc1ccc(O)cc1C(=O)O (stereo unspecified) | 3%
CN1CCN(CCC(=O)Nc2ccc3c(c2)CCC3)CC1 | i
Cc1ccc(N2CC(C(=O)NCc3cccnc3)CC2=O)cc1 (stereo unspecified) | i
Cc1c(NS(=O)(=O)c2ccccc2F)c(=O)n(-c2ccccc2)n1C | i
Cc1ccc(S(=O)(=O)CC(=O)Nc2ccc(I)cc2)cc1 | i
OCCN1CCN(C(=S)Nc2ccc(Oc3ccccc3)cc2)CC1 | i
CCCOc1ccc(NC(=O)C(=O)NCC2CCCO2)cc1 (stereo unspecified) | i
Cc1ccc(NC(=O)CN(Cc2ccc(Cl)cc2Cl)S(=O)(=O)c2ccccc2)c(C)c1 | i
N#Cc1ccc(CSc2nc3ccccc3s2)cc1 | i
O=C(Nc1ccc(-c2nc3ccccc3s2)cc1)C1CC1 | 3%
Cc1ccc(C(C)C)c(OC(=O)COc2ccc([N+](=O)[O-])cc2)c1 | i
O=C(CSc1nnc(-c2cccnc2)o1)c1ccc(Oc2ccccc2)cc1 | i
COc1cc2c(cc1OC)C(c1ccccc1F)CC(=O)N2 (stereo unspecified) | 3%
COc1ccccc1NC(=O)C1=C(C)NC2=C(C(=O)CC(c3ccc(OC)c(OC)c3)C2)C1c1ccc(N(C)C)cc1 (stereo unspecified) | 13%
O=C(NN1CC(C(=O)OCc2ccc(Cl)cc2Cl)CC1=O)c1ccccc1 (stereo unspecified) | i
Next section.
SMILES | Mtb H37Rv
COc1cc(NC(=S)Nc2ccc(OC(F)F)cc2C)cc(OC)c1 | i
CC1CCCCC12NC(=S)N(c1ccc(Cl)cc1)N2 (stereo unspecified) | i
CC1CCN(C(=O)Oc2ccccc2)CC1 | 6%
CCCc1nnc(N2C(=O)c3ccc([N+](=O)[O-])cc3C2=O)s1 | i
Cc1ccc(-c2nc3ccccc3n2C)s1 | 21%
O=C(Nc1ccccc1C(=O)NCCc1ccccc1)c1ccco1 | 4%
COc1ccc(S(=O)(=O)N(CC(=O)Nc2ccc(OC)c(OC)c2)c2cccc(Cl)c2)cc1 | i
CC(=O)c1ccc(NS(=O)(=O)c2ccc(-c3ccc(C)cc3)cc2)cc1 | 4%
O=C(NS(=O)(=O)c1ccccc1)c1cccc(I)c1 | i
O=C(Nc1cc(C(F)(F)F)ccc1Cl)C1CCN(C(=O)c2ccc(Cl)cc2Cl)CC1 | 2%
COc1cc(S(=O)(=O)N2CCOCC2)c(C)cc1C | i
COc1cc(C=O)ccc1OCCOCCOc1ccc([N+](=O)[O-])cc1 | i
CC(=O)OC(C(=O)N1CCN(c2ccccc2F)CC1)c1ccccc1 (stereo unspecified) | i
CCOc1ccccc1C(=O)NCC1CCN(C(=O)c2ccccc2OCC)CC1 | i
O=C(Cc1coc2ccc3ccccc3c12)Nc1cccnc1 | i
CCC(=O)Oc1ccccc1C1OCC2C(C)C=C(C)C1C2C (stereo unspecified) | 8%
Cc1ccccc1-c1nnn(CC(=O)O)n1 | 0%
COc1ccc(Cl)cc1/C=C(\C#N)c1nc2ccc(C)cc2[nH]1 | 43%

Only part of the results is shown; rates above refer to the full screens.
